# From PubChem BioAssay
# HIV Env fusion: inhibitors of HIV Env-mediated cell fusion; HeLa-JRFL Env/CEM21 cell fusion, luciferase; inhibition, % at 12.3 µM; hit rate 1.1% among 360,000; AID 651610;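 active = mean replicate inhibition score of at least 50 and every replicate individually at or above 50; inconclusive = only one of the two criteria met; inactive = mean below 50 and not all replicates reaching 50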;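 also: 0% = plate neutral controls and 100% = maraviroc near 300 nM; one replicate is shown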
# PABP polyA inh: PABP-poly(A) binding inhibition | hit rate 1% among 290,000 | P11940 | PABP-poly(A) RNA binding, fluorescence polarization | inhibition, % at 35 µM | AID 2014;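 active = 50% or more with normal probe brightness, or confirmed in later tests; inconclusive = above 50% with abnormal brightness, or retests that disagree; inactive = below 50% or failed in later tests; about a fifth of its hits are not listed in these tables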;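 also: calls also rest on retests at 20 µM and on dose response follow-up; controls were probe without protein and protein plus probe with vehicle; some compounds called inactive have numbers as strong as hits; many hits fall short of the cut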
# Target sequence (P11940 whole entry, looked up): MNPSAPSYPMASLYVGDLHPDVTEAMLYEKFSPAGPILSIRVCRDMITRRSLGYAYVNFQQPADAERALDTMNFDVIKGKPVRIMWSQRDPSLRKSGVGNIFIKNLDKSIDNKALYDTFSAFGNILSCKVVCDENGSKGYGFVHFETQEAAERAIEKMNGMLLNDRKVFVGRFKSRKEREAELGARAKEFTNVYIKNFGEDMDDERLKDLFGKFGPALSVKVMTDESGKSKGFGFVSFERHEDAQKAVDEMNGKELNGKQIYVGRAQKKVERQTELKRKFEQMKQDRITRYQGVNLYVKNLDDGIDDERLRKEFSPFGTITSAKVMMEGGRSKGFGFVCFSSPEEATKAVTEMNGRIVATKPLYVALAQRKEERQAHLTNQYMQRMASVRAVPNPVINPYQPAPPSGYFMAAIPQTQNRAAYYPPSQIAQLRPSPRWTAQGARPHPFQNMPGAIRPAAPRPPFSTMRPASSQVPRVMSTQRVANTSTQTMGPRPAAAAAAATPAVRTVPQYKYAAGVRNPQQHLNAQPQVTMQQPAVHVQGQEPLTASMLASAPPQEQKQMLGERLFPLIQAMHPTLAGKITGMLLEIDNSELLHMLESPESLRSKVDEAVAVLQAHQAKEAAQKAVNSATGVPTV
# MT1-MMP act inh: blocks activation of human MT1-MMP; GFP/RFP ratio change, % at 20 µM; P50281; hit rate 0.061% among 360,000; HT1080 RFP-PRO-GFP cells, GFP/RFP ratio fluorescence, overnight; percent of plate control window, DMSO zero;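 active = GFP/RFP ratio change of at least 30% with cell ATP level not reduced by more than half and red fluorescence within 50% of control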; also: strong numbers were not always called active
#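 Material: RFP-PRO-GFP reporter HT1080 cells. Dosing: single-point 20 µM compound, 1% DMSO. Controls: DMSO and RFP-L50D-GFP cell wells. Timing: cells overnight before dosing, compound overnight, 37 °C, 5% CO2. Measure: GFP/RFP fluorescence ratio.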
# Rce1 inhib: yeast Ras-converting enzyme inhibition; yeast membranes, quenched prenylated peptide cleavage fluorescence; calls only; hit rate 0.27% among 290,000; AID 2563;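 active = fall in fluorescence gain of 50% or more versus controls, with final raw signal at or below 3038400; inconclusive = same 50% fall but final raw signal above 3038400; inactive = fall in fluorescence gain under 50%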;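 also: plate controls were neutral control wells for no effect and wells lacking membranes for full effect; tested at 10 µM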
# Yeast UUG start: yeast start codon fidelity modulation; S. cerevisiae UUG-firefly luciferase reporter, luminescence/redox ratio; AID 602363; hit rate 0.13% among 350,000; activity score, % at 18.7 µM;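 active = replicate mean at a twofold rise or more, about +100% in these data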;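 also: firefly luciferase made from a UUG start codon reports start codon fidelity; reporter light over untreated wells divided by growth signal over untreated wells; some hits fall short of that in this replicate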
# eIF4H FP inh: inhibitors of RNA binding by human eIF4H; Q15056; eIF4H fluorescence polarization binding assay; hit rate 0.94% among 290,000; inhibition, % at 35 µM; AID 2012;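 active = 50% or more with normal probe brightness, or confirmed in later tests; inconclusive = above 50% with abnormal brightness, or retests that disagree; inactive = below 50% or failed in later tests; about a fifth of its hits are not listed in these tables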;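 also: calls also rest on retests at 20 µM and on dose response follow-up; 0% = protein and probe with vehicle and 100% = probe without protein; strong numbers were not always called active; many hits fall short of the cut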
# CSC inhib: cancer stem cell inhibition | AID 2717 | cancer stem cell-like cells viability, luminescence | inhibition, % at 7.5 µM | hit rate 1.1% among 300,000;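 active = mean at 75% or more and at least half the replicates too; inconclusive = mean and replicates disagree; tested in HMLE shEcad cells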;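 also: 0% = median of negative and 100% = median of positive control wells; the first replicate is given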
# MT1-MMP act inh RFP: further read-out of MT1-MMP act inh, marked with its call; RFP signal change, %; measured here: RFP expression control read;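 0 = vehicle wells; hits needed this value within 50% of zero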
# * = called active by the depositor; i = inactive; ? = inconclusive; nt = not tested or not shown; + = active, no number; & = joins results of further samples.
SMILES,HIV Env fusion,PABP polyA inh,MT1-MMP act inh,MT1-MMP act inh RFP,Rce1 inhib,Yeast UUG start,eIF4H FP inh,CSC inhib
CCCOc1ccc(C(=O)Nc2ccc(N3CCN(C(=O)c4ccco4)CC3)cc2)cc1,40,-1,4,-8,nt,3,2,-1
O=C(Cn1nc(-c2ccccc2)ccc1=O)N1CCCCC1,-2,3,-1,2,i,7,0,4
Cc1cc(OCC(=O)N2CCC(O)(c3ccc(Cl)cc3)CC2)c2c(C)cc(=O)oc2c1,4,3,10,-2,i,-14,-17,-1
Cc1cc(C)nc(NC(=O)C(c2ccccc2)c2ccccc2)n1,nt,-3,-1,-1,i,-22,-1,-14
COc1cc(OC)cc(C(=O)Nc2ccc(S(=O)(=O)Nc3cc(C)on3)cc2)c1,nt,4,0,6,i,nt,-6,1
Cc1ccc2nc(-c3ccc(N)cc3)sc2c1,-113,2,-3,-4,i,-52,1,70
Cc1cccc(C)c1OCC(O)CNS(=O)(=O)c1ccccc1C(=O)N1CCCCC1 (stereo unspecified),26,40,4,1,i,-2,2,-2
COc1ccc(Cl)cc1NC(=O)COC(=O)C1CC(=O)N(Cc2ccccc2)C1 (stereo unspecified),nt,nt,4,2,nt,-13,nt,-10
CCOc1cccc(NC(=O)c2cnccc2C(F)(F)F)c1,2,-3,0,0,i,-4,7,-14
CCOc1ccccc1CN1CCN(Cc2cn(C)nc2-c2ccccc2)CC1CCO (stereo unspecified),-4,3,1,5,i,-7,-7,8
O=C(Cn1cnc2ccccc2c1=O)Nc1ccc(S(=O)(=O)N2CCCC2)cc1,17,-5,6,2,i,nt,2,2
CCOC(=O)C1(C)CCCN1C(=O)c1ccc(OC)cc1 (stereo unspecified),1,nt,-2,3,nt,12,nt,nt
C[C@H](CO)N1C[C@H](C)[C@@H](CN(C)Cc2ccc3c(c2)OCO3)Oc2c(NC(=O)C3CCCCC3)cccc2C1=O,-9,nt,-2,-2,nt,13&-5,nt,-17
COc1cc(S(=O)(=O)NCC2(N3CCCCC3)CCCCC2)ccc1NC(C)=O,6,nt,1,4,nt,-16,nt,nt
Cc1ccc(N(CC(=O)NC2CCCC2)C(=O)Cn2nnc(-c3ccccc3F)n2)cc1,8,2,2,1,i,5,-16,nt
CC(=O)Nc1ccc(NC(=O)CN(c2cccc([N+](=O)[O-])c2)S(C)(=O)=O)cc1,3,-4,7,8,i,nt,-1,-17
O=C(Nc1ccccc1C(=O)Nc1ccccc1)c1cccs1,-20,2,-4,-2,i,-23,-13,-4
Cc1c(OC(C)C(=O)N[C@H](C(=O)O)c2ccccc2)ccc2c3c(c(=O)oc12)CCCC3 (stereo partly specified),nt,0,-5,3,i,0,-2,5
Cc1cc(NC(=O)C2C3C(=O)N(Cc4ccc(Cl)cc4)C(C(=O)NC(C)(C)C)C34C=CC2(C)O4)no1 (stereo unspecified),nt,-14,2,5,i,-13,0,-3
CCCN1CCN(c2ncnc3c2nnn3Cc2ccccc2)CC1,nt,15,-1,-1,i,17,4,-14
CC(C)(C)c1csc(NC(=O)Cn2c(=O)oc3ccccc32)n1,nt,-10,-2,-7,nt,-19,-6,1
CCOc1ccc(Cn2nnc(-c3ccc(S(C)(=O)=O)cc3)n2)cc1OCC,nt,nt,-1,-5,nt,-14,nt,-10
COc1ccc(/C=C2/NC(=O)N(CC(=O)Nc3cccc(C)c3)C2=O)cc1O,6,-3,1,5,i,-8,3,5
O=C(COc1ccc([N+](=O)[O-])cc1)Nc1ccc(N2CCCC2)cc1,10,7,1,3,i,nt,14,-20
O=C1N/C(=C/c2cccn2-c2ccccc2)C(=O)N1Cc1ccccc1F,17,4,-6,-4,i,nt,-3,17
COc1ccc(S(=O)(=O)Nc2ccc3c(c2)OCO3)cc1Cl,nt,2,3,-1,i,-23,2,-2
O/N=C1\CC(O)Cc2nonc21 (stereo unspecified),13,-6,-1,2,i,-17,-3,1
O=C(c1ccccc1)N1CCN(C(=O)c2cc3ccccc3oc2=O)CC1,-4,-6,1,1,i,-16,-5,nt
CN(Cc1ccccc1)S(=O)(=O)c1ccc(C(=O)Nc2nnc(C3CC3)o2)cc1,nt,37,0,-4,i,-8,13,13
CSc1ccc(N/N=C(/C#N)S(=O)(=O)C(C)(C)C)cc1,7,-15,-3,-6,i,nt,9,nt

# Results in MT1-MMP act inh RFP and HIV Env fusion, for some of the entries so far:
structure	MT1-MMP act inh RFP	HIV Env fusion
COc1ccc(Cl)cc1NC(=O)COC(=O)C1CC(=O)N(Cc2ccccc2)C1 (stereo unspecified)	2	nt
O=C(c1ccccc1)N1CCN(C(=O)c2cc3ccccc3oc2=O)CC1	1	-4
COc1cc(OC)cc(C(=O)Nc2ccc(S(=O)(=O)Nc3cc(C)on3)cc2)c1	6	nt

# The results go on.
SMILES,HIV Env fusion,PABP polyA inh,MT1-MMP act inh,MT1-MMP act inh RFP,Rce1 inhib,Yeast UUG start,eIF4H FP inh,CSC inhib
Cc1ccc(-c2nc3cccnc3s2)cc1NC(=O)c1ccco1,nt,nt,-3,-5,i,-7,nt,-3
Cc1[nH][nH]c(=O)c1N=Nc1ccc(F)cc1,3,4,2,-2,i,-7,-11,nt
Cc1ccccc1OCCn1cc(C(=S)N2CCCC2)c2ccccc21,-269,nt,-1,-3,nt,-23,nt,9
CCOc1ccc(CN(C)CC(=O)c2c(N)n(Cc3ccccc3)c(=O)n(CC)c2=O)cc1OC,nt,-14,-2,2,i,15,-2,3
COc1ccc(Cl)cc1NC(=O)CN(C)C(=O)c1ccc2c(c1)OCCO2,-1,nt,7,1,i,-11,nt,-8
O=C(O)CC(CC(=O)Nc1ccc(Oc2ccccc2)cc1)c1ccccc1 (stereo unspecified),3,-6,4,4,i,nt,-2,-13
CC(C)(NC(=O)c1ccccc1)c1nc2ccccc2s1,-9,nt,-3,2,i,0,nt,2
Cc1cn([C@H]2C[C@H](O)[C@@H](CCC(=O)NCc3ccccc3)O2)c(=O)[nH]c1=O,16,nt,4,8,nt,-10,nt,nt
O=C(COC(=O)CCC(=O)c1cccs1)Nc1cc(S(=O)(=O)N2CCOCC2)ccc1Cl,-55,-8,6,7,i,0,-7,-20
CCCCN(C(=O)C1=COCCO1)c1c(N)n(CCCC)c(=O)[nH]c1=O,7,nt,-1,4,i,-25,nt,5
Cc1nnc(SCC(=O)N(C)C2CCCCC2)n1C,nt,nt,4,2,nt,-3,nt,-7
COC(=O)/C=C/c1cnc[nH]1,-7,-6,1,3,i,15,4,-14
Nc1nnc(SCC(=O)c2ccc([N+](=O)[O-])cc2)s1,22,-1,7,-1,i,-4,-9,9
Cc1c2c(n3c(nc4ccccc43)c1C#N)N(CCCN(C)C)CC2,6,?,-12,-1,+,nt,?,-14
Cc1ccc(S(=O)(=O)CCC(=O)OCc2ccccc2)cc1,19,-2,2,6,i,nt,-6,-3
CCn1c(=O)[nH]c(=O)c2c(N)c(C(=O)c3ccccc3OC)sc21,-24,-8,-5,-4,i,-4,2,nt
Cc1ccc(CN2CC(N3CCN(CC4CC4)CC3)CS2(=O)=O)cc1 (stereo unspecified),4,nt,6,9,nt,-8,nt,nt
CCOC(=O)C1(CC/C(C)=N\NC(N)=O)CC(C)(C)OC1=O (stereo unspecified),15,-10,-1,2,i,-6,2,-11
NC(=O)c1ccc(N2CCCCCC2)c([N+](=O)[O-])c1,-10,-5,4,1,i,nt,-7,-8
O=C(CNc1cccc(S(=O)(=O)N2CCOCC2)c1)Nc1ccc(C(F)(F)F)cc1,nt,nt,-9,-19,i,nt,nt,1
COc1cc(C(=S)N2CCCC2)ccc1OC(=O)c1ccc(Cl)cc1[N+](=O)[O-],nt,4,1,-1,i,-14,7,nt
O=C1Nc2ccc([N+](=O)[O-])cc2OC1CCN1CCOCC1 (stereo unspecified),13,-1,-2,-4,i,-11,-4,-8
CCC1Oc2ccc(C)cc2N(CC(=O)NCCCN2CCCCC2C)C1=O (stereo unspecified),?,-5,-4,4,i,-19,25,5
Cc1cccc(NC(=S)NNC(=O)c2csc3c2CCC(C)C3)c1 (stereo unspecified),nt,4,-2,2,i,-31,12,nt
COc1ccc(-c2cn(-c3cccc(C)c3)c(=O)[nH]2)cc1OC,-24,-12,-2,-7,i,-13,11,1
COc1ccc(NC(=O)c2ccc(C(=O)Nc3ccc(OC)cc3OC)cc2)c(OC)c1,-34,-6,1,4,i,nt,6,3
CCCCONc1ncnc2nonc12,8,-3,-5,0,i,-34,-7,0
COc1c(Cl)cc(C(=O)Nc2cccnc2)cc1Cl,-86,nt,-2,3,nt,-15,nt,nt
CC(=O)NC(=S)Nc1cccc2c(C)cc(C)nc12,-10,5,0,2,i,nt,-8,-11
O=C1c2cccc3cccc(c23)C(=O)N1CCN1CCN(C(=S)Nc2ccccc2)CC1,-221,6,-2,-5,i,1,-4,-12
CN(C)c1cccc(NC(=O)c2cccc3ccccc23)c1,14,4,2,5,i,-7,2,-3
Cc1cc(O)c(C2(C(F)(F)F)NCCNC2=O)cc1C (stereo unspecified),-95,-7,-3,5,i,-7,1,-11
COc1cc(OC)cc(C(=O)NNC(=O)CNC(=O)c2ccc(Br)o2)c1,9,nt,0,0,i,-7,nt,-1
CC(=O)Oc1ccc(C23CC4CC(CC(C4)C2)C3)cc1C(=O)O,nt,0,nt,nt,i,nt,-3,17
CN(C(=O)C(C)(C)C)c1ccc(OCC(=O)N2CCc3ccccc3C2)cc1,47,9,4,-28,i,-4,5,3
CC1(C)Oc2ccc3ccc(=O)oc3c2C(/C=N/O)=C1Cl,-33,nt,0,2,i,1,nt,-23
COc1ccc(NC(=O)CSc2n[nH]c(N)n2)c([N+](=O)[O-])c1,nt,-4,-1,0,i,-21,-2,-16
O=c1cc(CO)oc(CN2CCN(c3ccccc3F)CC2)c1O,nt,-2,-1,0,i,2,-3,-6
O=C(NCc1ccccn1)Nc1ccc(F)c(Cl)c1,9,6,2,4,i,-9,-8,2
CCOC(=O)C1C(=O)C(=O)N(C(C)C)C1C(=O)OCC (stereo unspecified),3,nt,2,-1,nt,1,nt,nt
CCC(=O)N1CCc2cc(S(=O)(=O)NCCC(=O)N3CC=C(c4ccccc4)CC3)ccc21,10,-2,6,3,nt,1,-2,nt
Cc1ccc(S(=O)(=O)NC2CC(C)(C)NC(C)(C)C2)cc1C,5,6,0,2,nt,-22,6,12
CCCCc1nnc(NC(=O)CN(C)S(=O)(=O)c2ccc(C)cc2)s1,-10,8,1,0,i,6,-1,-17
CCCCNCc1cccn1-c1ccccc1,nt,-1,-5,-2,i,-6,2,-12
COc1ccc(CCNC(=O)CN(c2ccccc2OC)S(C)(=O)=O)cc1,-27,-4,2,6,i,-21,-9,-5
CCCCCC(=O)N1CC2(CC(c3cccc(NC(=O)COc4ccc(Cl)cc4)c3)=NO2)C[C@@H]1C(N)=O (stereo partly specified),37,2,1,-27,i,-14,-4,8
CCOC(=O)C1(CC2CCCCO2)CCN(C(=O)Nc2ccc(C)c(C)c2)CC1 (stereo unspecified),16,6,5,-3,i,nt,-2,-9
CCOc1ccccc1NC(=O)NCCN1CCCCC1,-57,-4,4,5,i,12,3,-8

# Rows were taken by chance. About 2.9% of those tested had a hit in this group.
